High-throughput results: PubChem, Broad Institute
AF4-AF9 inh = blocks AF4 peptide binding to human AF9. P42568. AlphaScreen, biotin-AF4 peptide binding to FLAG-AF9. inhibition, % at 10 µM. hit rate 0.47% among 350,000. AID 651704;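 active = every replicate reaching a set inhibition limit, whatever the replicate mean, cut at about 25% in these data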;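 also: 0% = plate neutral control median and 100% = total signal loss; the record names both 10 and 1 µM as test concentration; the first replicate is given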
Target sequence (P42568 whole entry, looked up): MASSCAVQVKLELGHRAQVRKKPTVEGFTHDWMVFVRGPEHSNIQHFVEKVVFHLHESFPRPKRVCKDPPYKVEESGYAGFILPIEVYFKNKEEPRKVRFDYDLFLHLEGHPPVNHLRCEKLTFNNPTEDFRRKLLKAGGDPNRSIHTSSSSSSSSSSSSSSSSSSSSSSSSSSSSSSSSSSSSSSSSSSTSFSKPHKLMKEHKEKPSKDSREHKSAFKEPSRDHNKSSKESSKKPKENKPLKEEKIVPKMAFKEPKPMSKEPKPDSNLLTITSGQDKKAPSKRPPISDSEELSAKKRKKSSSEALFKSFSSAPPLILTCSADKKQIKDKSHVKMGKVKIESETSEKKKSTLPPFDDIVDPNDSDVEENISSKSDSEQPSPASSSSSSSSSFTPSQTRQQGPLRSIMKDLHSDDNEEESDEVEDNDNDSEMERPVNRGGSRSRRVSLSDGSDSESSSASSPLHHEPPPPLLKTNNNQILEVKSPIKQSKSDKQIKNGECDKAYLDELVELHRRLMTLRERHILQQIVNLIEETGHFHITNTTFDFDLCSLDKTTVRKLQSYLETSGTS
FGF22 binding = binders of recombinant human FGF22 by thermal shift; SYPRO orange fluorescence; percent of sucrose octasulfate shift, DMSO zero; Q9HCT0; hit rate 1.5% among 340,000; calls only at 9.99 µM;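 active = melting point raised past a set limit in the mean and every replicate; three in four hits are not shown here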
Target sequence (Q9HCT0 whole entry, looked up): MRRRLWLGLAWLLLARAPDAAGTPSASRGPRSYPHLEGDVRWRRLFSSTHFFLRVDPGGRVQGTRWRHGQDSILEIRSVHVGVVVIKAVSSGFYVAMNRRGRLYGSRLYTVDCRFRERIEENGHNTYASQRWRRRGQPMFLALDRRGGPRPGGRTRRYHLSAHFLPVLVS
The depositor's hits bear a star; i = inactive.

no.	Compound	AF4-AF9 inh	FGF22 binding
1	C[C@H](CO)N1C[C@H](C)[C@@H](CN(C)C(=O)Nc2cccc3ccccc23)Oc2c(NC(=O)CCCCCC(=O)Nc3ccccc3N)cccc2C1=O	-3.3	i
2	COc1ccccc1-c1ccc2c(c1)O[C@H](CN(C)C(=O)Nc1ccccc1)[C@H](C)CN([C@H](C)CO)S2(=O)=O	-3.4	i
3	COc1ccccc1NC(=O)N1C[C@H]2[C@@H](c3ccccc31)[C@@H](CO)N2C(=O)C1CCCC1	1.8	i
4	C[C@@H]1CN([C@H](C)CO)C(=O)Cc2cc(NS(=O)(=O)c3cccs3)ccc2O[C@H]1CN(C)S(=O)(=O)c1ccc(Cl)cc1	1.2	i
5	C[C@@H]1CN([C@H](C)CO)C(=O)CCCn2cc(nn2)CO[C@H]1CN(C)Cc1ccc(Oc2ccccc2)cc1	-1.8	i
6	COCC#Cc1ccc2c(c1)O[C@H](CN(C)C(=O)CN(C)C)[C@H](C)CN([C@@H](C)CO)S2(=O)=O	-1.8	i
7	C[C@@H]1CCCCO[C@@H](CN(C)Cc2ccc(C(=O)O)cc2)[C@H](C)CN([C@H](C)CO)C(=O)c2cc(NS(C)(=O)=O)ccc2O1	-3.3	i
8	COc1ccc(CN(C)C[C@H]2OCCCC[C@@H](C)Oc3ccc(NS(C)(=O)=O)cc3C(=O)N([C@@H](C)CO)C[C@H]2C)cc1	3.2	i
9	COc1ccc(CN(C)C[C@@H]2OCCCC[C@@H](C)Oc3ccc(NS(C)(=O)=O)cc3C(=O)N([C@@H](C)CO)C[C@H]2C)cc1	-0.8	i
10	C[C@@H]1CCCCO[C@@H](CN(C)S(=O)(=O)c2ccccc2)[C@@H](C)CN([C@@H](C)CO)C(=O)c2cc(NC(=O)c3ccncc3)ccc2O1	-2.7	i
11	COc1ccc(S(=O)(=O)Nc2ccc3c(c2)C(=O)N([C@H](C)CO)C[C@@H](C)[C@@H](CN(C)C)OCCCC[C@@H](C)O3)cc1	2.6	i
12	C[C@@H]1CN([C@@H](C)CO)C(=O)c2cc(C#CCc3ccccc3)cnc2O[C@H]1CN(C)C(=O)C1CCC1	0.7	i
13	Cc1ccc(S(=O)(=O)N(C)C[C@H]2Oc3ccc(NC(=O)Nc4c(C)noc4C)cc3C(=O)N([C@@H](C)CO)C[C@H]2C)cc1	-13	i
14	C[C@@H]1CN([C@@H](C)CO)C(=O)c2cc(NS(=O)(=O)c3cccs3)ccc2O[C@@H](C)CCCCO[C@@H]1CN(C)C(=O)c1ccncc1	-3.7	i
15	CN(C)C(=O)C[C@@H]1CC[C@@H]2[C@H](COc3ccc(NC(=O)c4cnccn4)cc3C(=O)N2C)O1	-1.0	i
16	COc1ccc(S(=O)(=O)N(C)C[C@@H]2Oc3c(NS(C)(=O)=O)cccc3C(=O)N([C@@H](C)CO)C[C@@H]2C)cc1	2.6	i
17	C[C@@H]1CN([C@H](C)CO)C(=O)Cc2cc(NS(=O)(=O)c3ccccc3)ccc2O[C@H]1CN(C)S(=O)(=O)c1ccccc1	-3.5	i
18	O=C(C[C@H]1CC[C@H](NC(=O)CN2CCOCC2)[C@@H](CO)O1)NCc1cccc(F)c1	1.4	i
19	Cc1ccc(S(=O)(=O)N(C)C[C@@H]2Oc3ccc(NS(=O)(=O)c4ccc(F)cc4)cc3CC(=O)N([C@H](C)CO)C[C@@H]2C)cc1	-0.4	i
20	C/C=C/c1ccc([C@@H]2[C@H](CO)N3CCCCN(C(=O)Nc4ccc(OC)cc4)C[C@@H]23)cc1	13	i
21	Cc1ccccc1S(=O)(=O)N(C)C[C@H]1OCc2ccccc2-c2c(n(C)c3ccccc23)C(=O)N([C@H](C)CO)C[C@H]1C	7.0	i
22	C[C@@H]1CN([C@@H](C)CO)C(=O)Cc2cc(NC(=O)Nc3cccc4ccccc34)ccc2O[C@@H]1CN(C)Cc1ccc(Cl)c(Cl)c1	-0.1	i
23	CC(C)C#Cc1cnc2c(c1)C(=O)N([C@@H](C)CO)C[C@H](C)[C@@H](CN(C)C(=O)c1ccccn1)O2	-1.7	i
24	C[C@@H]1CN([C@H](C)CO)C(=O)c2cc(NC(=O)NC3CCCCC3)ccc2O[C@@H]1CN(C)Cc1ccc(C(F)(F)F)cc1	-1.1	i
25	COc1ccc(NC(=O)Nc2ccc3c(c2)CC(=O)N([C@@H](C)CO)C[C@@H](C)[C@@H](CN(C)S(=O)(=O)c2cn(C)cn2)O3)cc1	0.6	i
26	CCCC(=O)N1CCC2(CC1)CN(C(=O)Nc1cccc(F)c1)[C@H](CO)c1c2c2ccc(OC)cc2n1C	1.8	i
27	CCCCCCc1nc(-c2ccc(OC)nc2)c(C)c2c1[Si](C(C)C)(C(C)C)OC2	-3.5	i
28	Cc1noc(C)c1NC(=O)N(C)C[C@H]1Oc2c(NS(=O)(=O)c3cccs3)cccc2C(=O)N([C@@H](C)CO)C[C@H]1C	-5.3	i
29	COc1ccccc1-c1ccc2c(c1)[C@H]1[C@H](CCN1C(=O)C1CC1)[C@H](CO)N2	-0.9	i
30	C[C@H](CO)N1C[C@H](C)[C@@H](CN(C)C(=O)Nc2ccc3c(c2)OCO3)OCCCC[C@H](C)Oc2ccc(NC(=O)CCC(F)(F)F)cc2C1=O	1.9	i

The list continues:
no.	Compound	AF4-AF9 inh	FGF22 binding
31	C[C@@H]1CCCCO[C@H](CN(C)S(=O)(=O)c2ccccc2)[C@H](C)CN([C@H](C)CO)C(=O)c2cc(NC(=O)Nc3cccc4ccccc34)ccc2O1	-6.2	i
32	C[C@H]1CN([C@@H](C)CO)C(=O)c2cc(NC(=O)Nc3ccc(F)cc3)ccc2O[C@@H]1CN(C)S(=O)(=O)c1cccs1	2.3	i
33	CCCNC(=O)[C@H]1[C@H](CO)[C@H]2Cn3c(ccc(-c4cccc(C(=O)N(C)C)c4)c3=O)[C@@H]1N2	-21	i
34	CC(C)NC(=O)Nc1ccc2c(c1)C(=O)N([C@H](C)CO)C[C@@H](C)[C@H](CN(C)Cc1ccc(C(F)(F)F)cc1)O2	0.9	i
35	Cc1noc(C)c1S(=O)(=O)Nc1ccc2c(c1)C(=O)N([C@@H](C)CO)C[C@@H](C)[C@H](CN(C)C)O2	-2.7	i
36	CC(C)C#Cc1ccc2c(c1)O[C@H](CN(C)C(=O)CC1CC1)[C@H](C)CN([C@@H](C)CO)S2(=O)=O	0.9	i
37	CN1CCN(C(=O)C[C@H]2CC[C@H]3[C@@H](COC[C@H](O)CN3C(=O)C3CC3)O2)CC1	-2.0	i
38	C[C@H](CO)N1C[C@H](C)[C@H](CN(C)S(=O)(=O)c2ccc(F)cc2)Oc2ccc(NC(=O)C3CCCCC3)cc2C1=O	-1.4	i
39	C[C@@H]1CN([C@H](C)CO)C(=O)c2cc(NC(=O)Nc3ccc4c(c3)OCO4)ccc2O[C@@H]1CN(C)S(=O)(=O)c1cn(C)cn1	-0.5	i
40	C/C=C/c1ccc2c(c1)O[C@H](CN(C)C(=O)c1ccncc1)[C@@H](C)CN([C@@H](C)CO)S2(=O)=O	1.2	i
41	COC(=O)C1=C(C)N(Cc2ccccc2C(F)(F)F)C(=NCc2ccc(OC)cc2)NC1c1ccccc1C(F)(F)F (stereo not given)	-2.5	i
42	COc1ccc2c3c(n(C)c2c1)[C@@H](CO)N(S(C)(=O)=O)CC31CN(C(=O)C2CCCC2)C1	-0.1	i
43	C[C@H](CO)N1C[C@H](C)[C@@H](CN(C)S(=O)(=O)c2ccccc2)Oc2ccc(NC(=O)Cc3cn(C)c4ccccc34)cc2C1=O	-1.2	i
44	CC(C)C#Cc1cnc2c(c1)C(=O)N([C@H](C)CO)C[C@@H](C)[C@H](CN(C)Cc1ccccc1F)O2	5.3	i
45	COc1ccc(C(=O)Nc2ccc3c(c2)C(=O)N(C)C[C@@H](OC)[C@H](C)CN(C(C)=O)[C@@H](C)CO3)cc1	-2.7	i
46	CNC[C@H]1OCCCC[C@H](C)Oc2ccc(NS(=O)(=O)c3cccs3)cc2C(=O)N([C@@H](C)CO)C[C@H]1C	-4.4	i
47	COC(=O)[C@]12C[C@H](CC(=O)NCCCN3CCCC3=O)C(=O)N(Cc3ccccc3)C1=C[C@H](C1CCCC1)O[C@@H]2C	1.7	i
48	CNC[C@@H]1Oc2c(NC(=O)Nc3c(C)noc3C)cccc2C(=O)N([C@H](C)CO)C[C@H]1C	-5.3	i
49	C[C@H](CO)N1C[C@H](C)[C@H](CN(C)C(=O)Nc2ccc(F)cc2)OCCCC[C@H](C)Oc2ccc(NS(=O)(=O)c3cccs3)cc2C1=O	-4.5	i
50	COc1ccc(NC(=O)Nc2ccc3c(c2)C(=O)N([C@@H](C)CO)C[C@H](C)[C@@H](CN(C)Cc2ccc(C(=O)O)cc2)OCCCC[C@@H](C)O3)cc1	0.7	i
51	COCC(=O)N1[C@H](C#N)[C@H](c2ccccc2-c2ccc(C)cc2)[C@H]1CO	-13	i
52	C[C@@H]1CN([C@@H](C)CO)C(=O)c2cccc(NC(=O)c3nc4ccccc4s3)c2O[C@@H]1CN(C)CC1CCCCC1	-3.2	i
53	COc1cccc(S(=O)(=O)Nc2ccc3c(c2)OC[C@H](C)NC[C@H](C)[C@H](OC)CN(C)C3=O)c1	-1.8	i
54	CCCC#Cc1ccc([C@@H]2[C@H](CO)N3C(=O)CN(C(=O)Nc4cccc(F)c4)C[C@@H]23)cc1	-0.8	i
55	O=C(C[C@@H]1CC[C@@H](NC(=O)Nc2ccc3c(c2)OCO3)[C@H](CO)O1)NCc1ccccc1	-2.7	i
56	CO[C@@H]1CN(C)C(=O)c2ccc(NC(=O)C3CCOCC3)cc2OC[C@H](C)N(Cc2nccs2)C[C@H]1C	1.7	i
57	CCN1[C@@H]2c3ccc(C4=CCCC4)c(=O)n3C[C@@H]2[C@@H](CO)[C@@H]1C(=O)NCCc1ccccc1	-1.4	i
58	CCCNC(=O)[C@@H]1[C@@H](CO)[C@@H]2Cn3c(ccc(/C=C/c4ccccc4)c3=O)[C@H]1N2C(C)=O	-2.9	i
59	COc1ccc(-c2ccc3c(c2)O[C@H](CN(C)C)[C@@H](C)CN([C@H](C)CO)S3(=O)=O)cc1	4.0	i
60	C[C@@H]1CN([C@@H](C)CO)C(=O)Cc2cc(NC(=O)CCN3CCOCC3)ccc2O[C@H]1CN(C)C(=O)Nc1cccc2ccccc12	4.7	i

Following part
no.	Compound	AF4-AF9 inh	FGF22 binding
61	CCC(=O)Nc1ccc2c(c1)C(=O)N(C)C[C@H](OC)[C@@H](C)CN(C(=O)NC(C)C)[C@H](C)CO2	-0.2	i
62	C[C@H]1CN([C@@H](C)CO)C(=O)c2cc(NS(=O)(=O)c3ccc(Cl)cc3)ccc2O[C@@H]1CN(C)C	-17	i
63	CN1C(=O)[C@@]2(C3=C(CCCC3=O)OC3=C2C(=O)CC(C)(C)C3)c2ccccc21	-0.1	i
64	O=C(N[C@H]1CC[C@H](CC(=O)N2CCC(Cc3ccccc3)CC2)O[C@@H]1CO)c1cnccn1	-4.7	i
65	CO[C@H]1CN(C)C(=O)c2ccc(NC(=O)Nc3ccccc3)cc2OC[C@@H](C)N(C(=O)Nc2c(C)noc2C)C[C@H]1C	2.3	i
66	C[C@@H]1CN([C@H](C)CO)C(=O)c2cccc(NC(=O)NC3CCCCC3)c2O[C@@H]1CN(C)Cc1ccc(C(=O)O)cc1	-9.7	i
67	CCCNC(=O)N1[C@H](C#N)[C@H](c2ccc(C3=CCCCC3)cc2)[C@@H]1CO	3.0	i
68	Cc1ccc(S(=O)(=O)N(C)C[C@@H]2Oc3ccc(NC(=O)C4CCCCC4)cc3CC(=O)N([C@@H](C)CO)C[C@H]2C)cc1	2.1	i
69	NCC[C@@H]1CC[C@H](NS(=O)(=O)c2ccc(Cl)cc2)[C@H](CO)O1	1.2	i
70	CCC(=O)N(C)C[C@@H]1Oc2cc(C#CC(C)(C)O)ccc2S(=O)(=O)N([C@@H](C)CO)C[C@@H]1C	-0.3	i
71	C[C@@H]1CN([C@@H](C)CO)C(=O)Cc2cc(NC(=O)c3ccncc3)ccc2O[C@@H]1CN(C)C(=O)NC1CCCCC1	3.4	i
72	CNC[C@@H]1OCCCC[C@H](C)Oc2ccc(NC(=O)c3ccccc3)cc2C(=O)N([C@H](C)CO)C[C@@H]1C	-7.2	i
73	CCCNC(=O)N1CC2(CCN(C)CC2)c2c(n(C)c3cc(OC)ccc23)[C@H]1CO	2.5	i
74	CCCN1[C@H](C(=O)NCCc2cn(C)cn2)[C@@H](CO)[C@@H]2Cn3c(ccc(-c4ccccc4)c3=O)[C@@H]21	1.8	i
75	C[C@@H]1CN([C@H](C)CO)C(=O)Cc2cc(NC(=O)Nc3ccccc3)ccc2O[C@@H]1CN(C)Cc1ccc(C(=O)O)cc1	-1.9	i

Given with two lines to a compound: 3 of the compounds above
Order of results – AF4-AF9 inh	FGF22 binding
66. C[C@@H]1CN([C@H](C)CO)C(=O)c2cccc(NC(=O)NC3CCCCC3)c2O[C@@H]1CN(C)Cc1ccc(C(=O)O)cc1
→ -9.7	i
63. CN1C(=O)[C@@]2(C3=C(CCCC3=O)OC3=C2C(=O)CC(C)(C)C3)c2ccccc21
→ -0.1	i
62. C[C@H]1CN([C@@H](C)CO)C(=O)c2cc(NS(=O)(=O)c3ccc(Cl)cc3)ccc2O[C@@H]1CN(C)C
→ -17	i

Two of these compounds in a different format:
#73 CCCNC(=O)N1CC2(CCN(C)CC2)c2c(n(C)c3cc(OC)ccc23)[C@H]1CO
#74 CCCN1[C@H](C(=O)NCCc2cn(C)cn2)[C@@H](CO)[C@@H]2Cn3c(ccc(-c4ccccc4)c3=O)[C@@H]21
Compound | 73 | 74
AF4-AF9 inh | 2.5 | 1.8
FGF22 binding | i | i

Along the list, from the results shown:
FGF22 binding, entries 65–74: i, i, i, i, i, i, i, i, i, i
AF4-AF9 inh, entries 65–74: 2.3, -9.7, 3.0, 2.1, 1.2, -0.3, 3.4, -7.2, 2.5, 1.8

Some of the compounds tested. The share of hits here may be higher or lower than overall.
